B2AR ag = activates human beta-2 adrenergic receptor causing internalization | P07550 | Am2.2-beta2AR cells, FAP receptor internalization, flow cytometry; reference of the scale not given here | response, % (concentration not given with the values) | 0.43% of 340,000 active | AID 504454;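 active = response above a set limit, near 3 SD of response in nonfluorescent compounds, cut at about 42% in these data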;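 also: stock transfer was 100 nL into about 11 µL; a reference agonist was the positive control; negative values mostly stem from fluorescent compounds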
UCH37 DUB inh = inhibitors of human deubiquitinating enzyme UCH37 | purified proteasome/UCH37, Ub-AMC cleavage fluorescence | inhibition, % (no concentration beside the values) | 0.33% of 330,000 active;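 active = mean of two replicates above 20%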;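 also: 0% = compound-free wells with enzyme and 100% = wells lacking proteasome; stock transfer was 100 nL into about 20 µL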
Target sequence (Q9Y5K5 whole entry, looked up): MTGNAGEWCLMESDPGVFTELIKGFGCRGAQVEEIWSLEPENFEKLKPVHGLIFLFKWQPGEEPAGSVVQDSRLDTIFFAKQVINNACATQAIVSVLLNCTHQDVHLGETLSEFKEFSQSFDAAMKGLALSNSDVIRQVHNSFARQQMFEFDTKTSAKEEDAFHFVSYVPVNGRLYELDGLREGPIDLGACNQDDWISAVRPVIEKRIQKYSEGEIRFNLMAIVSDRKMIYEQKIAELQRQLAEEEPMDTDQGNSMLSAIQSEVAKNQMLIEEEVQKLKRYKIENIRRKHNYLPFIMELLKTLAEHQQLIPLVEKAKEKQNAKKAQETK
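Material: human UCH37 enzyme supplied as purified proteasome complex. Measure: % inhibition of Ub-AMC cleavage fluorescence. Medium: pH 7.4 Tris-HCl (50 mM) with ovalbumin, ATP-MgCl2, DTT. Times: 30 min preincubation with enzyme, 25 min cleavage at room temperature. Detection: AMC fluorescence intensity at 355/460 nm.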
ALR H2O2 inh = inhibitors of human sulfhydryl oxidase ALR | P55789 | purified ALR, DTT oxidation, H2O2 HRP-luminol luminescence | inhibition, % (concentration not given with the values) | 3.8% of 290,000 active | AID 485317;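 active = mean and each replicate at 75% or more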;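 also: stock transfer was 7.5 nL into about 7.5 µL; 0% = neutral wells and 100% = wells with inactivated enzyme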
HNF4A DNA FP = change in binding of human HNF4 alpha to DNA; activity change, % at 10 µM; 0.3% of 360,000 active; HNF4a-FITC DNA binding, fluorescence polarization, 1 h; P41235; AID 1224865; in the data active = activity change above about 30%, passing the limit was not always enough;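 also: controls were the assay level and a saturating level of protein; the project sought stronger binding though the title names inhibitors; some compounds called inactive have numbers as strong as hits; positive values seem to mean higher polarization but the record does not say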
Target sequence (P41235 whole entry, looked up): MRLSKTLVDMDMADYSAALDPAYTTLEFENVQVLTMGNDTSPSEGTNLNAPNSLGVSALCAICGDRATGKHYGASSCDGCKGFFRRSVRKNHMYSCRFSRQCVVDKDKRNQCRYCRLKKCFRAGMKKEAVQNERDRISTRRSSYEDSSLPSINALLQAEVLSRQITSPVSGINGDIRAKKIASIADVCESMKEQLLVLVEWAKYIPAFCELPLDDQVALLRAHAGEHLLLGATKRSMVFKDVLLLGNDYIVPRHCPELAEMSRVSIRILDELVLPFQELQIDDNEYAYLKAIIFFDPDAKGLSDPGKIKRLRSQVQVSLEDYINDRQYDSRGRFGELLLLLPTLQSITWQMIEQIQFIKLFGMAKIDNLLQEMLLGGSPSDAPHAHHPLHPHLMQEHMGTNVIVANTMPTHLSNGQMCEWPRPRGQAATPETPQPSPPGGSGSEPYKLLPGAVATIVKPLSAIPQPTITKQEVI
Ecoli growth = inhibitors of Escherichia coli growth | OD600, 23 h; hits give low values | OD600 absorbance (test concentration not listed) | 0.21% of 330,000 active;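 active = OD600 absorbance below the run mean of sample wells minus 3.6 SD, in any replicate, cut at about 0.56 in these data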;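 also: stock transfer was 300 nL into about 60 µL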
FGF22 binding = binders of recombinant human FGF22 by thermal shift; calls only at 9.99 µM; AID 651658; Q9HCT0; 1.5% of 340,000 active; SYPRO orange fluorescence; percent of sucrose octasulfate shift, DMSO zero;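 active = melting point raised past a set limit in the mean and every replicate; three in four hits are not shown here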
Target sequence (Q9HCT0 whole entry, looked up): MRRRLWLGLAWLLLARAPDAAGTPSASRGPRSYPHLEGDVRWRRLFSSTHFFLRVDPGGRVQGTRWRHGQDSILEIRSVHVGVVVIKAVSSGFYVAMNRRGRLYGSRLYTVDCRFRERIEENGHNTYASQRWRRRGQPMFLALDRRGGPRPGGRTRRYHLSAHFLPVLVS
LANA-H2A inh = blocks KSHV LANA binding to histone H2A/H2B. 0.6% of 320,000 active. Q9QR71. cell-free LANA-H2A/H2B peptide, fluorescence polarization. inhibition, % (test concentration not listed); in the data active = inhibition mostly above about 10%, no sharp cut-off; inactive = mostly below about 6.7%;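 also: stock transfer was 7.5 nL into about 10 µL; 0% = median of vehicle wells and 100% = median of positive control wells; one replicate is shown; the record names a cut of 25% in any replicate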
Numbers without * were called inactive; i = inactive; . = no result given.

SMILES	B2AR ag	UCH37 DUB inh	ALR H2O2 inh	HNF4A DNA FP	Ecoli growth	FGF22 binding	LANA-H2A inh
COc1ccc(/C=C/C(=O)OCC(=O)NC2CCCC2)c(OC)c1	13.7	-0.6	-2.3	0.6	0.696	i	-1.2
CCOC(=O)c1sc(NC(=O)c2ccncc2)c(C#N)c1C	13.8	9.1	.	0.3	0.674	i	.
CN(Cc1cn(C)nc1-c1cccc(Cl)c1)Cc1nccn1C	-5.9	1.6	.	-0.1	0.666	i	2.1
O=C(/C=C/c1ccco1)NC(=S)N1CCCCC1	88.5*	9.8	2.3	-4.7	0.662	i	5.9
C=C(C)CC1(NC(C)c2ccccc2)CCCCC1 (stereo unspecified)	1.5	0.6	1.4	0.2	0.676	i	3.3
COc1ccccc1NC(=O)C(C)OC(=O)CCCc1c[nH]c2ccccc12 (stereo unspecified)	3.0	4.1	23.4	-12.3	0.671	i	4.2
Cc1cc(OC(=O)Cc2cccc3ccccc23)c([N+](=O)[O-])c(=O)[nH]1	-1.5	5.7	-21.1	-0.8	0.677	.	3.0
O=C(Nc1nc(-c2nc3ccccc3s2)cs1)C1CC1	-22.8	2.3	55.9	0.2	0.667	i	-3.9
Cn1nccc1NS(=O)(=O)c1ccc(C(C)(C)C)cc1	-2.0	-0.6	4.9	3.2	0.716	i	2.7
CCOc1ccccc1C1N(c2ccc(F)cc2)C(=O)C2CCCN21 (stereo unspecified)	-2.1	-1.8	.	-2.7	0.695	.	-5.4
COC(=O)C1=C(C(=O)OC)[C@@H]2N(C)c3ccc(OC)cc3[C@@]23C[C@@H](C(=O)OC)N(C(=O)NC2CCCCC2)C3=N1	-2.5	0.2	-4.4	-3.1	.	i	-5.9
CC(=O)Nc1nnc(SCC(=O)N2CCCc3ccccc32)s1	0.0	0.1	-1.4	3.4	0.587	i	-1.2
OCCC1CN(Cc2ccccc2-c2ccco2)CCN1Cc1ccccc1 (stereo unspecified)	10.8	-1.5	-12.7	0.1	0.735	i	-0.9
COc1ccc(NC(=S)N2CCN(C(c3ccccc3)c3ccccc3)CC2)cc1OC	7.9	7.1	.	-3.6	0.711	i	-1.9
CN(Cc1ccccc1)C(=O)c1nc[nH]c1C(=O)N1CCc2ccccc2C1	-3.7	-1.0	-1.0	-2.7	0.715	i	-3.7
Cc1ccccc1N(C(=O)c1ccco1)C(C(=O)NC1CCCC1)c1cccnc1 (stereo unspecified)	-1.4	4.2	-0.2	0.2	0.651	i	3.5
CCOC(=O)C(=CNc1cc(C)ccc1[N+](=O)[O-])C(=O)OCC	-8.9	5.4	-2.1	0.6	0.691	i	2.5
CCOc1ccc(CSC2=NCCN2)cc1Cl	5.5	6.1	100.0*	1.2	0.67	.	2.2
CCNC(=O)C(C)Oc1ccc(Cl)cc1Cl (stereo unspecified)	-4.5	-1.1	.	-3.3	0.717	i	-6.1
Cc1c(NC(=O)c2cccnc2C(=O)O)cccc1C(=O)O	3.4	0.0	.	-2.5	0.707	.	3.3
Cc1cc(NC(=O)C(Cl)c2ccccc2)no1 (stereo unspecified)	8.4	1.0	14.8	-5.1	0.622	i	-2.8
O=C(NC1CCCCCC1)C1Cc2ccccc2CN1C(=O)c1ccco1 (stereo unspecified)	-1.9	3.4	7.0	1.6	0.739	i	1.2
CCOC(=O)C1C2C=CC3(CN(C4CCCC4)C(=O)C13)O2 (stereo unspecified)	-1.1	0.2	-4.4	1.3	0.71	.	0.7
CSCCC(NC(=O)c1ccccc1Br)C(=O)NNC(=O)C1COc2ccccc2O1 (stereo unspecified)	-1.4	0.3	.	-3.4	0.684	i	.
COc1ccc(OC)c(Nc2cc(C)nc3nc(C)nn23)c1	-0.3	2.5	-13.0	3.2	0.701	i	-1.1

Continued, starting with the last three of the part before.
SMILES	B2AR ag	UCH37 DUB inh	ALR H2O2 inh	HNF4A DNA FP	Ecoli growth	FGF22 binding	LANA-H2A inh
CCOC(=O)C1C2C=CC3(CN(C4CCCC4)C(=O)C13)O2 (stereo unspecified)	-1.1	0.2	-4.4	1.3	0.71	.	0.7
CSCCC(NC(=O)c1ccccc1Br)C(=O)NNC(=O)C1COc2ccccc2O1 (stereo unspecified)	-1.4	0.3	.	-3.4	0.684	i	.
COc1ccc(OC)c(Nc2cc(C)nc3nc(C)nn23)c1	-0.3	2.5	-13.0	3.2	0.701	i	-1.1
Cc1ccc(S(=O)(=O)Nc2ccccc2)cc1[N+](=O)[O-]	-1.5	0.8	.	1.3	0.695	i	.
CC1CCN(C(=O)CSc2nc3c(c(=O)n(C)c(=O)n3C)n2C)CC1	-3.0	0.9	-2.6	-3.3	0.715	i	-4.7
Cc1ccc(S(=O)(=O)N/N=C\c2cc3c(cc2[N+](=O)[O-])OCO3)cc1	-1.7	.	-3.2	1.5	.	i	3.6
CCOc1ccc(-n2c(SCC(=O)Nc3ccc(OC)cc3OC)nc3c(c2=O)SCC3)cc1	0.2	2.8	-8.4	-1.5	0.799	.	-1.7
COc1ccc(S(=O)(=O)N2CCCC2CNC(=O)C(=O)NCc2ccccc2Cl)cc1 (stereo unspecified)	-16.2	4.9	0.8	1.8	0.655	i	7.1
C=CCSc1nc(C)c(CCCC)c(=O)[nH]1	4.9	2.8	.	3.0	0.659	.	-8.2
CC(C)CCOc1cccc(C2c3c(oc4ccccc4c3=O)C(=O)N2CCCN2CCOCC2)c1 (stereo unspecified)	-10.9	2.4	.	0.7	0.765	i	.
CC(Sc1nc(NCc2ccccc2)nc(N(C)C)n1)C(=O)Nc1ccccc1 (stereo unspecified)	-7.7	4.8	-8.1	-0.5	0.743	.	0.3
CCCNc1nc(=S)n(-c2ccccc2)c(C)c1C(C)=O	-2.4	1.0	12.7	-5.9	0.689	i	6.2
CCCCN(C1CCS(=O)(=O)C1)S(=O)(=O)c1ccc(OC)cc1 (stereo unspecified)	1.2	0.5	13.7	1.4	0.628	i	-2.5
Cc1ccc(Nc2[nH]c(=O)c3ccccc3c2C(=O)c2ccccc2)cc1	.	2.7	-7.7	.	0.732	.	3.2
CCCCCCCn1c2c(c(=N)c3ccccc31)CCC2	-8.6	2.0	-8.4	0.4	0.633	i	0.4
COc1ccc(CN2C(=O)c3cccnc3C2=O)cc1S(=O)(=O)N1CCOc2ccc(Cl)cc21	10.7	1.0	-9.5	1.0	0.651	i	3.7
Cc1cc(C)cc(NC(=O)CSCc2cc(=O)n3ccsc3n2)c1	-0.8	1.4	-10.8	-0.4	0.663	i	3.9
COc1ccc(S(=O)(=O)N2CCOC2CNC(=O)C(=O)NCc2ccco2)cc1 (stereo unspecified)	3.8	4.7	2.9	-3.1	0.653	i	0.2
O=C(NCc1cccc(Cl)c1)C1CCCN(c2ncnc3c2nc2n3CCCCC2)C1 (stereo unspecified)	0.3	0.5	4.5	-0.9	0.686	i	0.1
CCCCn1c(N)c(N(CCOC)C(=O)c2c(CC)noc2C)c(=O)[nH]c1=O	3.4	1.1	-12.2	-1.2	0.672	i	-9.7
COc1ccc(OC)c(NS(=O)(=O)c2ccc(-c3coc(C)n3)cc2)c1	1.4	2.4	1.5	-3.0	0.684	.	-2.0
NS(=O)(=O)c1ccc(O)c(NC(=O)c2ccc([N+](=O)[O-])o2)c1	-9.7	5.5	-20.1	-4.6	0.691	i	-0.8
c1ccc(-n2nnc3ccccc32)cc1	-14.1	-1.4	-12.3	0.8	0.652	i	-5.6
c1ccc(CCCCc2ccncc2)cc1	-5.7	-1.1	.	-1.1	0.656	i	.
Cc1ccnc2nc(C(=O)OCC(=O)NC3CCCC(C)C3C)nn12 (stereo unspecified)	12.9	1.1	-3.5	1.3	0.67	i	0.6
Cc1ccc(-c2nnn(CC(=O)N(CC(=O)NC3CCCCC3)c3ccccc3F)n2)o1	-12.5	8.2	.	3.2	0.681	i	.
CCOc1ccccc1CN1CCN(Cc2[nH]c3ccccc3c2C)CC1CCO (stereo unspecified)	24.3	-0.2	3.9	1.8	0.673	.	-4.5
CC(/C=C/c1ccc2c(c1)OCO2)=N/NC(=O)c1ccncc1	6.8	.	-8.4	0.4	.	i	1.2

Carrying on.
SMILES	B2AR ag	UCH37 DUB inh	ALR H2O2 inh	HNF4A DNA FP	Ecoli growth	FGF22 binding	LANA-H2A inh
O=C(CCCCCNC(=O)N1CCn2c1nc1ccccc12)NCc1ccc(F)cc1	-0.4	5.0	-3.5	1.8	0.666	i	-0.5
Cc1nc(COC(=O)c2ccc(CO)cc2)cs1	-0.5	2.8	-2.6	1.6	0.704	.	2.3
COc1cc(OC)cc(C(=O)N2CCN(S(C)(=O)=O)CC2)c1	1.7	3.2	-8.9	4.0	0.684	.	-6.8
Cc1nn(Cc2ccc(Cl)cc2)c(C)c1NC(=O)CSc1nc2c(c(C(F)(F)F)n1)CCc1ccccc1-2	2.7	1.4	98.4*	3.5	0.755	.	5.5
COc1ccccc1C(=O)COC(=O)C(CCSC)NC(=O)COc1ccccc1 (stereo unspecified)	-4.4	1.7	.	-5.1	0.642	.	1.8
CCCCP(=O)(CCCC)Cc1ccccc1	-0.2	0.3	-0.3	19.6	0.696	.	0.0
COc1ccccc1C(=O)n1nc(-c2cccnc2)nc1NCc1ccccc1	-1.4	2.5	.	-3.7	0.655	i	.
CC(CCc1ccccn1)C(=O)c1ccccc1 (stereo unspecified)	-0.3	0.7	.	3.7	0.669	i	.
Cn1c(=O)cc(SCC(=O)N2CCN(Cc3ccc4c(c3)OCO4)CC2)c2ccccc21	-11.8	2.4	-19.2	-4.1	0.712	.	0.4
COc1ccc(/C(O)=C2\C(=O)C(=O)N(CCN(C)C)C2c2cccc(OC)c2OC)cc1 (stereo unspecified)	-4.3	6.4	1.1	1.6	.	.	-0.2
O=C(NNS(=O)(=O)c1ccc(F)cc1)c1ccccc1O	4.6	2.4	11.6	-4.2	0.649	i	4.5
O=C(NCc1cccnc1)/C(=C/c1ccc([N+](=O)[O-])cc1)NC(=O)c1ccccc1	-1.6	7.1	-3.8	-0.5	0.727	i	1.6
CCC(C)(C)NC(=O)CN(Cc1cccs1)C(=O)CNS(=O)(=O)c1ccc(C)cc1	2.3	3.0	-11.6	-1.5	0.659	.	-3.4
CCOc1ccc(NC(=O)CSc2nc3ccccc3c(=O)n2CCCC(=O)NCCCN2CCCC2=O)cc1	-0.6	2.6	32.2	-0.5	0.714	i	0.4
CCn1c(=O)c2sccc2n(CC(=O)NCCC2=CCCCC2)c1=O	5.9	6.8	0.1	1.3	0.702	i	-1.7
Cc1cc(C)n(CCC(=O)N2CCN(S(=O)(=O)c3ccccc3)CC2)n1	-7.3	1.7	0.0	0.0	0.712	i	-11.5
CN(C)S(=O)(=O)Nc1cc(F)cc(F)c1	-1.9	-0.8	-8.5	-3.0	0.693	.	-3.5
CNC(=O)c1[nH]cnc1C(=O)Nc1ccccc1	-6.2	3.2	4.5	2.7	0.641	i	2.6
CCCCN(C(=O)Nc1ccccc1)C1CCS(=O)(=O)C1 (stereo unspecified)	1.4	3.4	-3.4	-0.3	0.668	i	0.4
CCn1cc(C(=O)O)c(=O)c2cc(F)c(N3CCN(S(=O)(=O)c4ccc(NC(=O)OC)cc4)CC3)cc21	5.8	-68.7	12.0	0.8	0.0615*	i	-1.2
O=C(Cc1cccc2ccccc12)Nc1nc(-c2cccc([N+](=O)[O-])c2)cs1	7.7	4.6	0.5	-2.0	0.747	i	3.6
O=C(O)CC1(CC(=O)NCc2cccc(Cl)c2)CCCCC1	5.0	4.1	.	1.9	0.679	i	3.6
COc1ccc(/C=C(/NC(=O)c2cccs2)C(=O)NC(C)(C)C)cc1OC	-17.9	4.1	-2.3	-0.3	0.651	i	4.6
O=C(NCCCN1CCOCC1)c1ccc(S(=O)(=O)N2CCOCC2)cc1	-0.6	-2.0	-4.2	-1.2	0.639	.	3.1
CC(C)(C)OC(=O)CNC(=O)c1nc[nH]c1C(=O)N1CCNCC1	3.8	0.6	-12.4	11.2	0.717	i	0.5
O=C(CN1CCN(C(=O)c2ccco2)CC1)Nc1ccc(Br)cc1	-5.4	3.9	-33.3	-2.7	0.669	i	1.9
O=C(N/N=C1\C2CN3CCN(C2)CC1(c1ccccc1)C3)Nc1ccccc1	-0.8	.	-20.1	-0.3	.	i	-3.4

Screening data from PubChem BioAssay.

The list is partial, so the mix of outcomes need not match the whole.
